# Compound activity (PubChem BioAssay)
# NPYLR7 ag – mosquito NPYLR7 agonism; HEK293T NPYLR7/Galpha15, GCaMP6s calcium fluorescence; activation, % at 10 µM; actives 0.15% (n = 270,000); AID 1259423; in the data active means activation above about 40%;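 further: 0% = vehicle and 100% = reference agonist at the receptor; some compounds past the cut are filed as inactive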
# NPYLR7 ag max-min – also measured in NPYLR7 ag; calls as there; activation, %; measured here: Max-Min RFU normalised activation; some inactives read as strong as hits;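 span of the calcium signal over five minutes; 0% = vehicle and 100% = native peptide agonist; compound fluorescence can raise it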
# * hit, by the source's call; & = joins results of further samples.
SMILES,NPYLR7 ag,NPYLR7 ag max-min
CCOCCCNc1nnc(SCC(=O)NC(CC)CC)s1,2.6,-1.1
O=C(c1cc(COc2ccc3c(c2)OCO3)[nH]n1)N1CCCC1c1ccccn1 (stereo unspecified),7.1,4.1
CCc1nnc(CN(C)c2nccc(C3CCCC3)n2)o1,5.9,3.5
CCOC(=O)c1[nH]c(C)c(C(=O)OCCCn2c(=O)c3c(ncn3C)n(C)c2=O)c1C,1.8,14.2
COC(=O)c1ccccc1NC(=O)N1CC(=O)N2CC(C)c3ccccc3C2C1 (stereo unspecified),-7.8,-1.7
O=C(c1ccc(-c2cc(-c3ccc(Cl)cc3)[nH]n2)cc1)N1CCC(Cc2ccccc2)CC1,-1.6,-6.0
O=C(CSc1nnc(C2CC2)s1)Nc1ccncc1,1.0,-0.8
Cc1ccc(NC(=O)N(CC(=O)N(CCc2c[nH]c3ccccc23)Cc2ccc(Cl)c(Cl)c2)C2CC2)cc1Cl,-16.2,-17.1
COC(=O)c1cccc(CN2C(=O)C(C)Oc3ccc(C)cc32)c1 (stereo unspecified),-1.1,7.7
COc1cc2c(cc1OC)C(CNC(=O)c1ccc3c(c1)OCO3)N(C(=O)Nc1ccc(C)cc1)CC2 (stereo unspecified),18.4,14.5
Cn1ncc(NCC2(c3ccccc3)CC2)c(Cl)c1=O,-5.0,-6.3
CCN(CC)CCCNC(=O)c1cc2nc(-c3ccc([N+](=O)[O-])cc3)cc(C(F)(F)F)n2n1,4.3,4.3
Cn1c(Oc2cc(Cl)cc(Cl)c2)cc(=O)n(C)c1=O,13.7,7.0
COc1ccc(C2CC(c3cccs3)=NN2C(=O)CN2CCCCC2)cc1O (stereo unspecified),14.4,9.1
CCC(C)NC(=O)c1cc(NC(=O)Nc2ccc(C)cc2C)ccc1N1CCCC1 (stereo unspecified),4.3,6.2
CCOC(=O)CCC(=O)Nc1cccc(C2SCC(=O)N2c2ccccc2F)c1 (stereo unspecified),19.9,30.0
CCN1CCN(C(=O)c2ccccc2N2CCC(NC(=O)C3CCC3)CC2)CC1,0.0,6.0
CC(=O)NCc1ccc(-c2csc(NC(=O)CNC(=O)c3cc(C)cc(C)c3)n2)s1,-6.5,-6.5
Cc1ccc(Cn2nc(-c3ccccc3)ccc2=O)cc1,7.9,3.9
CCOc1ccc(C(=O)C(C)Sc2nc(C)cc(=O)[nH]2)cc1 (stereo unspecified),-8.2,-9.0
O=C(Cn1cnc2c(nnn2-c2cccc(Cl)c2)c1=O)N1CCN(c2ccccc2)CC1,6.5,9.3
O=C1CC(c2ccnn2-c2ccccc2)c2cnn(-c3ccccc3)c2N1 (stereo unspecified),-1.3,13.6
COC(CNC(=O)c1ccccc1I)c1ccc(F)cc1 (stereo unspecified),-1.6,-3.9
CN1C(=O)N(CCCc2ccncc2)C(=O)C12CCN(Cc1ccsc1)CC2,23.3,10.0
COc1ccc(NCC(=O)N2CCCCCCC2)cc1F,9.2,3.5
Cc1cc(C)c(CN2CCN(Cc3ccsc3)C(CCO)C2)c(-n2cccn2)c1 (stereo unspecified),9.5,0.6
COc1ccc(C2CC(c3cc(OC)ccc3OC)n3nnnc3N2)cc1 (stereo unspecified),6.8,7.8
COc1ccc(C2CC(c3nc4ccccc4[nH]3)=NN2C(=O)CCN2CCCCC2)cc1 (stereo unspecified),1.9,-9.6
CCc1cn[nH]c1C1CCCN(Cc2cn[nH]c2C(=O)O)C1 (stereo unspecified),2.1,1.6
CC(C)c1ccc(NC2CCCN(c3cnc4ccccc4n3)C2)cc1 (stereo unspecified),7.5,5.9
COc1cccc(CN2C(=O)C3(SCCN3C(=O)Nc3cccc(OC)c3)c3cc(C)ccc32)c1 (stereo unspecified),-5.9,-1.8
Cc1ccc(C(=O)N=Nc2c(O)[nH]c3ccc(Br)cc23)cc1,3.6,12.0
C=CC[P+](N(CCC)CCC)(N(CCC)CCC)N(CCC)CCC,4.3,4.8
CC(=O)N1CCN(CC(=O)N2N=C(c3ccccc3F)CC2c2ccc(Cl)cc2)CC1 (stereo unspecified),4.4,10.6
Cc1cc(C(=O)N2CC3ON=C(c4cccnc4)C3C2)nn1C(C)(C)C (stereo unspecified),6.4,6.8
CCc1ccc(NC(=O)C(C)Nc2cccc3c2OCCO3)cc1 (stereo unspecified),15.6,11.0
COc1ccc(C2=NN(C(C)=O)C(c3ccc(Br)cc3)C2)cc1 (stereo unspecified),-5.2,-7.6
Cc1ccc(COC(=O)c2ccc3c(c2)C(=O)N(Cc2ccco2)C3=O)cc1,0.6,0.3
O=C(c1ccc(-c2ccc(F)cc2)o1)N1CCN(S(=O)(=O)c2cccs2)CC1,-0.7,13.4
O=C(Nc1ccc(-c2ccco2)cc1)C1CCCN(C(=O)CCN2CCCO2)C1 (stereo unspecified),3.6&-3.6,2.0&-4.0
Clc1ccc(OCc2noc(CSc3nnc(-c4ccc5ccccc5n4)o3)n2)cc1Cl,-5.1,-9.8
Cc1ccn(-c2n[nH]c(C)c2[N+](=O)[O-])n1,0.2,7.6
CCc1nnc(NC(=O)C(C)N2CCC(O)(Cn3ccnc3)CC2)s1 (stereo unspecified),4.4,1.8
CC(C(=O)NCCCOc1cccc([N+](=O)[O-])c1)c1cccc(C(=O)c2ccccc2)c1 (stereo unspecified),-9.5,-15.4
CCCN(Cc1ccccc1O)C(=O)Nc1cccc(C(C)OC)c1 (stereo unspecified),5.4,4.2
CC1CN(C(=O)Cn2cc(SCC(=O)NCc3ccccc3)c3ccccc32)CC(C)O1 (stereo unspecified),-4.8,-8.4
O=C1CN(NC(=O)COc2ccc(-c3ccccc3)cc2Cl)C(=O)N1,-6.2,-7.3
CCn1c(SCc2ccc(C(=O)N3CCOCC3)cc2)nnc1-c1ccncc1,-7.8,4.8
O=P1(NCc2ccccc2)C=C(c2ccccc2)SC(c2ccccc2)=C1,2.3,23.0
O=C1CSC(=NC(=O)NC2CCCCC2)N1,-1.2,-3.7
# New compounds follow:
SMILES,NPYLR7 ag,NPYLR7 ag max-min
Cc1ccccc1OCCCn1c(CO)nc2ccccc21,1.2,-2.5
C=CCN(Cc1ccccc1C)Cc1cccnc1NC,-1.3,-6.8
Cc1ccc(Cc2nc(N3CCCN(Cc4ccco4)CC3)c3c(C)nn(-c4ccccc4)c3n2)cc1,-1.8,1.3
Cn1cc(NC(=O)Nc2ccccc2)c2ccccc21,0.5,-3.9
CN(C)C=NC=C(C#N)c1nc(-c2ccc(Cl)cc2)cs1,1.5,-2.2
CC(c1ccccc1)N1CCN(S(=O)(=O)c2ccc(Cl)s2)CC1 (stereo unspecified),-0.3,-0.1
c1ccc2c(N3CC(c4ccncc4)C3)nccc2c1,1.4,-3.0
O=C(CSc1ccc2nnc(-c3ccncc3)n2n1)Nc1ccccc1C(F)(F)F,-2.6,-2.5
CC(C)(C(=O)c1ccccc1)/[N+]([O-])=C/c1ccccc1F,-17.2,-21.2
COCCN(Cc1nc2ccccc2o1)C(=O)c1cccc(C#N)c1,23.2,27.3
O=C(CSc1nnc(C2CC2)n1C1CC1)c1ccc[nH]1,-1.5,5.5
CCN(C(=O)Cn1cc(C2CC2)nn1)c1ccc(C)cc1C,-3.5,-3.7
CN1C(=S)N(CCCN2CCOCC2)C(=O)/C1=C\c1ccc[nH]1,-11.6,-6.6
CCOC(=O)CCCSc1nnc(-c2ccc(OC)cc2)n1-c1ccc(Cl)c(Cl)c1,6.9,7.6
Cc1cc(CN(C)C(=O)CC23CC4CC(CC(C4)C2)C3)ccn1,-3.7,-9.2
CN[C@@H](C)C(=O)N[C@H](C(=O)N1CCC[C@H]1C(=O)Nc1snnc1-c1ccccc1)C1CCCCC1,0.2,-5.0
Nc1nccn1Cc1ccc(Br)cc1,2.1,-0.4
O=c1[nH]nc(CCn2ccnc2-c2ccc(-n3ccnc3)cc2)[nH]1,16.2,4.2
CC1CCCN(Cc2nc3c(c(=O)n(C)c(=O)n3C)n2CCN2CCOCC2)C1 (stereo unspecified),0.1,-0.9
COc1ccc(CN2CC[C@@]3(O)CCCC[C@H]3C2)cc1C(=O)O,8.4,5.0

# As a short view, part of the list above:
SMILES,NPYLR7 ag,NPYLR7 ag max-min
c1ccc2c(N3CC(c4ccncc4)C3)nccc2c1,1.4,-3.0
O=C(CSc1ccc2nnc(-c3ccncc3)n2n1)Nc1ccccc1C(F)(F)F,-2.6,-2.5
CC(C)(C(=O)c1ccccc1)/[N+]([O-])=C/c1ccccc1F,-17.2,-21.2
COCCN(Cc1nc2ccccc2o1)C(=O)c1cccc(C#N)c1,23.2,27.3
O=C(CSc1nnc(C2CC2)n1C1CC1)c1ccc[nH]1,-1.5,5.5
CCN(C(=O)Cn1cc(C2CC2)nn1)c1ccc(C)cc1C,-3.5,-3.7
CN1C(=S)N(CCCN2CCOCC2)C(=O)/C1=C\c1ccc[nH]1,-11.6,-6.6
CCOC(=O)CCCSc1nnc(-c2ccc(OC)cc2)n1-c1ccc(Cl)c(Cl)c1,6.9,7.6
Cc1cc(CN(C)C(=O)CC23CC4CC(CC(C4)C2)C3)ccn1,-3.7,-9.2
CN[C@@H](C)C(=O)N[C@H](C(=O)N1CCC[C@H]1C(=O)Nc1snnc1-c1ccccc1)C1CCCCC1,0.2,-5.0
Nc1nccn1Cc1ccc(Br)cc1,2.1,-0.4
O=c1[nH]nc(CCn2ccnc2-c2ccc(-n3ccnc3)cc2)[nH]1,16.2,4.2
CC1CCCN(Cc2nc3c(c(=O)n(C)c(=O)n3C)n2CCN2CCOCC2)C1 (stereo unspecified),0.1,-0.9
COc1ccc(CN2CC[C@@]3(O)CCCC[C@H]3C2)cc1C(=O)O,8.4,5.0

# (continued)
SMILES,NPYLR7 ag,NPYLR7 ag max-min
COC(=O)c1csc(S(=O)(=O)N2CCNCC2)c1,2.3,15.7
O=C(CCCSc1ccc(NC(=O)C2CC2)nn1)NCC1CCCO1 (stereo unspecified),-1.3,-2.9
CC(C)N(C)S(=O)(=O)c1ccc(NC(=O)Cn2nnc3ccccc32)cc1,-0.5,5.2
COc1ccccc1/C=N\N=C1/NC(=O)C(CC(=O)Nc2cccc(C(C)=O)c2)S1 (stereo unspecified),10.5,8.0
Cc1cc(Oc2ccc([N+](=O)[O-])cc2)nc(SCc2c(F)cccc2F)n1,22.7,21.5
CCOC(=O)C1CCCN(C(=O)CC2CSc3nc4c(c(=O)n32)CCCC4)C1 (stereo unspecified),-2.9,-4.9
O=C(NCCCC(=O)N(CCCO)CC1CC1(c1ccccc1)c1ccccc1)OCc1ccccc1 (stereo unspecified),-7.6,-11.8
Cc1cc(CS(=O)(=O)CC(=O)NC2CC2)on1,1.9,1.4
CCOC(=O)[C@H]1C[C@]2(CCCCN(C)C2=O)N(C(=O)c2ccccc2)[C@H]1c1ccccc1,2.9,10.0
C=C(C)CNC(=S)Nc1cc(C)ccn1,1.9,3.4
CCN1C(=O)C(=Cc2c(NCc3ccco3)nc3ccc(C)cn3c2=O)SC1=S,5.3,11.0
CNCC(=O)NCCC(=O)Nc1cccc2ccccc12,11.6,9.5
CCOc1ccc(CN(Cc2cccc(C(F)(F)F)c2)Cc2nc(C(=O)NC3CC3)co2)cc1,12.9,20.0
COc1cccc(CN2CCC2(C)C(=O)N2CCN(C(=O)c3ccco3)CC2)c1OC (stereo unspecified),5.5,0.3
CC(C)CC(=O)N1CCC(NS(=O)(=O)c2ccccc2C(F)(F)F)CC1,8.8,6.0
CC(C)(C)C(=O)Nn1cnc2c(cnn2C(C)(C)C)c1=O,3.5,0.2
CCN(C(=O)c1cc2ccccc2o1)c1ccc(F)cc1,-11.3,-12.7
CCCCCCNC(=O)c1cccc(CSc2nc(Cl)cc(N3CCN(Cc4ccccc4)CC3)n2)c1,0.7,6.2
COC(=O)[C@@H]1C[C@H](NS(=O)(=O)c2ccc(-n3cccn3)cc2)CN1C,-2.4,2.8
CCOC(=O)CCC(=O)N1CCN(C(C(=O)NCCc2ccccc2OC)C2CCCC2)CC1 (stereo unspecified),15.9,15.6
CC1CCCC(C)N1C(=O)c1cc2nc(-c3ccc(F)cc3)cc(C(F)(F)F)n2n1 (stereo unspecified),-17.7,-22.8
Nc1ccc(OCC2CCCCC2)cc1,17.4,8.5
NC1=NC(=O)/C(=C/c2ccc(-c3cc([N+](=O)[O-])ccc3Cl)o2)S1,-8.1,-13.6
COc1ccc(CCCNC(=O)C2CCC(=O)N(C3CC3)C2)cc1 (stereo unspecified),1.7,2.0
O=C(CCc1ccccc1)N1CCCC(OCc2ccc(F)c(F)c2)C1 (stereo unspecified),1.7,1.1
COc1ccc(C(=O)N2CC(C(=O)O)Oc3ccccc32)c(OC)c1 (stereo unspecified),-0.5,0.2
CCc1nc(C)nc(N2CCN(C(=O)c3ccccc3Cl)CC2)c1Cc1c(F)cccc1Cl,1.3,10.0
CCOC(=O)c1cnn(-c2cc(C)nc3c(-c4ccc(Cl)cc4)cnn23)c1N,6.4,5.4
COC(=O)c1ccc2c(=O)n(CC(C)C)c(SCC#N)nc2c1,1.0,-0.7
O=C(NC1CC1)c1ccc(NCc2ccc(Cl)nc2)cc1Cl,10.3,7.2
Cc1cc(C)c(S(=O)(=O)N(CC(=O)N(Cc2ccccc2)Cc2cccs2)CC2CCCO2)c(C)c1 (stereo unspecified),-3.2,-8.0
CCOc1ccc2nc(NC(=O)c3cn(C)cc4c(=O)n(-c5ccccc5)nc3-4)sc2c1,7.9,7.1
Cc1ccc(NC(=O)Nc2ccc(Nc3cc(-n4cccn4)ncn3)cc2)c(Cl)c1,-6.7,-13.2
CCCCN(C)C(=O)Cc1csc2nc(-c3ccc(OCC)cc3)cn12,0.1,-2.2
O=C(Cc1ccccc1)N1CCC(Cc2ccc(C(F)(F)F)cc2)CC1,-5.7,-8.5
Cc1ccc(S(=O)(=O)Nc2cc(Cl)ccn2)cc1,8.6,2.5
CCOC(=O)Cc1csc(=Nc2ccc(C)cc2)n1CCO,-9.9,-16.4
CCC(O)CN(CCN1CCOCC1)Cc1ccc(C)o1 (stereo unspecified),0.0,10.2
CC(C)Cc1cnc2c(c1SCC(=O)N(C)c1ccccc1)c(=O)n(C)c(=O)n2C,0.0,0.3

# Only part of the results is shown (hit frequency here may not be typical).
